Env fusion inh – HIV envelope-mediated fusion inhibition; HeLa-JRFL Env/CEM21 cell fusion, luciferase; inhibition, % at 12.3 µM; actives 1.1% (n = 360,000);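 active = mean replicate inhibition score of at least 50 and every replicate individually at or above 50; inconclusive = only one of the two criteria met; inactive = mean below 50 and not all replicates reaching 50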;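 also: 0% = plate neutral controls and 100% = maraviroc near 300 nM; one replicate is shown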
Active calls of the source: *; ? = inconclusive; [ ] = remark or other dose. A portion of the library; rates above refer to the full screens.

Env fusion inh	canonical_smiles
-4[16.7 µM]	Cn1cnc(CCNC(=O)C[C@@H]2CC[C@@H]3[C@H](COC[C@H](O)CN3C(=O)Nc3ccc(C(F)(F)F)cc3)O2)c1
31	COC(=O)C1=C(C)N(Cc2cccc(C(F)(F)F)c2)C(=NCc2ccc(C(F)(F)F)cc2)NC1c1ccccc1 (stereo not drawn)
12[16.7 µM]	CO[C@@H]1CN(C)C(=O)c2ccc(NC(=O)C3CCC3)cc2OC[C@H](C)N(C(=O)CN(C)C)C[C@H]1C
32	COC(=O)c1ccccc1S(=O)(=O)NC(=O)[C@H]1O[C@@H](n2ccc(=O)[nH]c2=O)[C@H](O)[C@@H]1O
3[16.7 µM]	C[C@@H]1CN([C@@H](C)CO)C(=O)c2ccccc2-c2ccccc2CO[C@H]1CN(C)C(=O)[C@H](C)c1ccccc1
11[16.7 µM]	O=C1CCCn2cc(nn2)COC[C@@H](c2ccccc2)N1
-19[16.7 µM]	CS(=O)(=O)Nc1ccc2c(c1)[C@H]1C[C@H](CC(=O)NCC3CC3)O[C@@H](CO)[C@H]1O2
?	Cn1nc(C(C)(C)C)cc1C(=O)NCC1CCN(C(=O)C(=O)c2cc3ccccc3o2)CC1
-89[16.7 µM]	Cc1noc(C)c1NC(=O)Nc1ccc2c(c1)C(=O)N([C@H](C)CO)C[C@H](C)[C@H](CN(C)S(=O)(=O)c1ccc(Cl)cc1)OCCCC[C@H](C)O2
6	COc1ccc(CN2C[C@@]3(O)CC[C@@H](O)[C@@H](OC)[C@@H]3[C@@](C)(O)[C@@H]2CC=C(C)C)cc1
-12[16.7 µM]	O=C(NC[C@@H]1CC[C@@H]2[C@@H](CN2C(=O)C2CCOCC2)O1)Nc1ccccc1Cl
12	O=C(Nc1cc(S(=O)(=O)N2CCOCC2)ccc1N1CCCC1)c1ccccc1C(F)(F)F
-30[16.7 µM]	C[C@H]1CN([C@@H](C)CO)C(=O)c2ccccc2-c2ccccc2CO[C@H]1CN(C)C(=O)CCN(C)C
-17[16.7 µM]	CC=Cc1ccc2n(c1=O)C[C@@H]1[C@@H](CO)[C@H](C(=O)NC3CCC3)N(Cc3ccncc3)[C@H]21 (mixture of isomers)
13[16.7 µM]	C[C@H]1CN([C@@H](C)CO)C(=O)c2cc(NC(=O)Nc3cccc4ccccc34)ccc2O[C@H]1CN(C)Cc1ccncc1
16[16.7 µM]	N#Cc1ccc(-c2ccc3c(c2)[C@H]2[C@H](CCN2C(=O)C2CCC2)[C@@H](CO)N3)cc1
-1[16.7 µM]	CN1C(=O)c2cc(NC(=O)c3cnccn3)ccc2OC[C@H]2O[C@@H](CC(=O)Nc3cc(F)ccc3F)CC[C@@H]21
-3[16.7 µM]	CCCC#Cc1ccc2c(c1)O[C@H](CN(C)Cc1ccccc1)[C@H](C)CN([C@@H](C)CO)S2(=O)=O
17	CCCc1c(Cc2cccc(F)c2)ncn1CCc1ccccc1OC
-19[16.7 µM]	CC(C)(C)[S@@](=O)N1Cc2cc(C(=O)N3CCCCC3)nc(-c3cccc(-c4ccc(C#N)cc4)c3)c2[C@H]1CCO
7[16.7 µM]	CN1CCN(C(=O)c2cc3c(c(-c4cccc(C5=CCCC5)c4)n2)[C@@H](CCO)N([S@](=O)C(C)(C)C)C3)CC1
48[16.7 µM]	C[C@H]1CN([C@@H](C)CO)C(=O)c2c(c3ccccc3n2C)-c2ccccc2CO[C@@H]1CN(C)S(=O)(=O)c1cccc(F)c1
11	CN(N=Cc1ccccc1O)C(=O)c1ccccc1N
7[16.7 µM]	COCC(=O)Nc1ccc2c(c1)C(=O)N(C)C[C@H](OC)[C@H](C)CN(Cc1cc(F)ccc1F)[C@@H](C)CO2

An excerpt of these results, as comma-separated lines:
molecule,Env fusion inh
CN1CCN(C(=O)c2cc3c(c(-c4cccc(C5=CCCC5)c4)n2)[C@@H](CCO)N([S@](=O)C(C)(C)C)C3)CC1,7[16.7 µM]
C[C@H]1CN([C@@H](C)CO)C(=O)c2c(c3ccccc3n2C)-c2ccccc2CO[C@@H]1CN(C)S(=O)(=O)c1cccc(F)c1,48[16.7 µM]
CN(N=Cc1ccccc1O)C(=O)c1ccccc1N,11

Carrying on.
Env fusion inh	canonical_smiles
-53[16.7 µM]	C[C@H](CO)N1C[C@H](C)[C@@H](CN(C)C(=O)c2ccccc2)OCCCC[C@H](C)Oc2ccc(NC(=O)c3ccccc3)cc2C1=O
-99[16.7 µM]	CO[C@H](C(=O)N(C)C[C@H]1OCc2ccccc2-c2c(n(C)c3ccccc23)C(=O)N([C@H](C)CO)C[C@H]1C)c1ccccc1
7[16.7 µM]	CCCN(C)C[C@@H]1Oc2cc(-c3ccc(C#N)cc3)ccc2S(=O)(=O)N([C@H](C)CO)C[C@@H]1C
110*	C[n+]1cc2c3c(ccc2c2ccc4cc5c(cc4c21)OCO5)OCO3
-2	COc1cccc(CNC(=O)[C@H]2CCCN2C(=O)[C@H]2CCCN2C(=O)c2cc(F)cc(F)c2)c1
2[16.7 µM]	CS(=O)(=O)N1[C@@H]2c3ccc(-c4cccc(F)c4)c(=O)n3C[C@H]1[C@H](CO)[C@H]2C(=O)N1CCCCC1
23[16.7 µM]	COc1cccc(C(=O)Nc2ccc3c(c2)C(=O)N(C)[C@H]2CC[C@@H](CC(=O)NCC(F)(F)F)O[C@H]2CO3)c1
3[16.7 µM]	CO[C@@H]1CN(C)C(=O)c2ccc(NS(=O)(=O)c3ccc(F)cc3)cc2OC[C@@H](C)N(C)C[C@H]1C
-197	COC(=O)C1=C(C)N(Cc2ccccc2C(F)(F)F)C(=NCc2cc(OC)c(OC)c(OC)c2)NC1c1ccccc1 (stereo not drawn)
2[16.7 µM]	CS(=O)(=O)Nc1ccc2c(c1)[C@@H]1C[C@@H](CC(=O)NCc3ccc(Cl)cc3)O[C@H](CO)[C@@H]1O2
-5[16.7 µM]	C[C@H]1CN([C@@H](C)CO)C(=O)c2cc(C#CC3CC3)cnc2O[C@H]1CN(C)C(=O)C1CCCCC1
-7[16.7 µM]	COc1ccc(S(=O)(=O)N(C)C[C@H]2OCCCC[C@H](C)Oc3ccc(NS(=O)(=O)c4cn(C)cn4)cc3C(=O)N([C@@H](C)CO)C[C@H]2C)cc1
9[16.7 µM]	O=C(C[C@H]1CC[C@H]2[C@@H](COC[C@@H](O)CN2Cc2ccccc2)O1)N1CCOCC1
-13[16.7 µM]	C[C@H]1CN([C@@H](C)CO)S(=O)(=O)c2ccc(-c3ccc(C(=O)N(C)C)cc3)cc2O[C@@H]1CN(C)C(=O)C1CC1
1[16.7 µM]	CN(C)C(=O)C[C@H]1C[C@@H]2c3cc(NC(=O)CC4CC4)ccc3O[C@@H]2[C@@H](CO)O1
3[16.7 µM]	O=C(NC[C@H]1CC[C@@H]2[C@@H](CN2C(=O)C2CCOCC2)O1)c1cccnc1
-10	O=C1NC(Cc2ccccc2)c2nc3cc(F)ccc3c(=O)n2-c2ccccc21 (stereo not drawn)
6	O=C(NCc1ccccc1)[C@H]1CCCN1C(=O)[C@H]1CCCN1C(=O)c1cccs1
-8	COC(=O)[C@]12C[C@H](CC(=O)NCCCN3CCCC3=O)C(=O)N(Cc3ccc4c(c3)OCO4)C1=C[C@H](C(C)(C)C)O[C@@H]2C
52[16.7 µM]	C[C@@H]1CN([C@@H](C)CO)C(=O)c2c(c3ccccc3n2C)-c2ccccc2CO[C@H]1CN(C)S(=O)(=O)c1cccc(F)c1
20[16.7 µM]	O=C(NCCCN1CCOCC1)[C@@H]1[C@@H](CO)[C@@H]2Cn3c(cccc3=O)[C@H]1N2C(=O)NC1CCCC1
19[16.7 µM]	CC(C)(C)[S@](=O)N1Cc2cc(C(=O)NCCc3ccncc3)nc(-c3cccc(-c4ccc(C#N)cc4)c3)c2[C@@H]1CCO
3[16.7 µM]	CN(C)C(=O)[C@H]1[C@H](CO)[C@H]2Cn3c(ccc(C4=CCCC4)c3=O)[C@H]2N1C(=O)c1ccccc1F
2	COC(=O)c1cc2c(c3c4cc(C)ccc4n(S(=O)(=O)c4ccc(OC)cc4)c13)C(=O)N(Cc1ccccc1OC)C2

3 of these compounds in another layout:
canonical_smiles | Env fusion inh
COc1cccc(CNC(=O)[C@H]2CCCN2C(=O)[C@H]2CCCN2C(=O)c2cc(F)cc(F)c2)c1 | -2
O=C1NC(Cc2ccccc2)c2nc3cc(F)ccc3c(=O)n2-c2ccccc21 (stereo not drawn) | -10
COCC(=O)Nc1ccc2c(c1)C(=O)N(C)C[C@H](OC)[C@H](C)CN(Cc1cc(F)ccc1F)[C@@H](C)CO2 | 7[16.7 µM]

Continuation:
Env fusion inh	canonical_smiles
8[16.7 µM]	CO[C@H]1CN(C)C(=O)c2ccc(NC(=O)c3cnccn3)cc2OC[C@H](C)N(CCc2ccccc2)C[C@H]1C
39	Fc1ccc(CN2CCN(c3ncc(Cc4ccccc4)cn3)CC2)c(Cl)c1
7[16.7 µM]	COc1cccc(NC(=O)Nc2ccc3c(c2)C(=O)N(C)[C@@H]2CC[C@H](CC(=O)NCCc4ccccc4)O[C@H]2CO3)c1
6[16.7 µM]	C[C@@H]1CN([C@H](C)CO)C(=O)c2ccccc2-c2ccccc2CO[C@H]1CN(C)S(=O)(=O)c1cccc(F)c1
21[16.7 µM]	C[C@@H]1CN([C@@H](C)CO)C(=O)CCCn2cc(nn2)CO[C@@H]1CN(C)C(=O)NC1CCCC1
-2[16.7 µM]	C[C@@H]1CN([C@H](C)CO)C(=O)c2cccc(NS(=O)(=O)c3ccc(Cl)cc3)c2O[C@@H]1CN(C)CC1CC1
-1[16.7 µM]	COc1ccc2c3c([nH]c2c1)[C@H](CO)N(C(C)=O)CC31CN(C(=O)Nc2ccc(F)cc2)C1
-4[16.7 µM]	COc1ccc(C[C@H]2CCc3cnnn3COC[C@H](C(C)C)NC2=O)cc1
-10[16.7 µM]	Cc1ccccc1S(=O)(=O)N1C[C@@H](O)COC[C@@H]2O[C@H](CC(=O)NCCc3ccccc3)CC[C@H]21
10[16.7 µM]	CCc1nc(N2[C@H](C#N)[C@@H](c3ccccc3-c3ccccc3C)[C@@H]2CO)sc1C
-52	O=C(NCc1ccccc1)[C@@H]1CCCN1C(=O)[C@H]1CCCN1C(=O)C1CCCCC1
0[16.7 µM]	COc1ccc(S(=O)(=O)Nc2ccc3c(c2)C(=O)N([C@@H](C)CO)C[C@H](C)[C@@H](CN(C)C)OCCCC[C@H](C)O3)cc1
-7	CCCN(C(=O)C1CCCN(c2ncnc3c2nc2n3CCCCC2)C1)c1ccccc1C (stereo not drawn)
15[16.7 µM]	CO[C@@H]1CN(C)C(=O)c2ccc(NC(=O)c3ccccc3)cc2OC[C@H](C)N(C(C)=O)C[C@@H]1C
-27[16.7 µM]	CCCN1C[C@@H](C)[C@H](OC)CN(C)C(=O)c2cc(NC(=O)Nc3ccccc3F)ccc2OC[C@@H]1C
-44[16.7 µM]	C[C@@H]1CN([C@@H](C)CO)S(=O)(=O)c2ccc(-c3ccc(F)cc3)cc2O[C@@H]1CN(C)C(=O)Nc1ccc(F)cc1
5	Cc1ccc(S(=O)(=O)N(C)c2ccc(OCC(=O)Nc3cc(C(=O)O)ccc3Cl)cc2)cc1
-11[16.7 µM]	CN1[C@@H]2Cn3c(ccc(/C=C/c4ccccc4)c3=O)[C@H]1[C@@H](C(=O)NC1CCCC1)[C@@H]2CO
16[16.7 µM]	O=C(C[C@@H]1C[C@H]2c3cc(NC(=O)Nc4ccccc4F)ccc3O[C@H]2[C@H](CO)O1)NC1CCCCC1
-8[16.7 µM]	CC(C)CC#Cc1cnc2c(c1)C(=O)N([C@@H](C)CO)C[C@@H](C)[C@H](CN(C)C(=O)c1cccc(F)c1)O2
9	Cc1ccccc1-c1ccc2c(c1)[C@@H]1C[C@H](N(C)C(=O)Nc3ccccc3)[C@H]([C@H](C)O)CN1CC2
-7[16.7 µM]	COc1ccc(-c2ccccc2[C@H]2[C@@H](C#N)N(C(=O)C3CCCC3)[C@H]2CO)cc1
-4[16.7 µM]	CO[C@H]1CN(C)C(=O)c2ccc(NC(=O)Nc3c(C)noc3C)cc2OC[C@H](C)N(CC2CC2)C[C@H]1C
2	COc1ccccc1C(=O)N1CCN(C(=O)[C@@H](Cc2ccccc2)NC(=O)[C@H]2O[C@@H](n3cnc(C(N)=O)n3)[C@H](O)[C@@H]2O)CC1
5[16.7 µM]	Cc1ccccc1-c1cnc2c(c1)C(=O)N([C@@H](C)CO)C[C@H](C)[C@H](CN(C)C(=O)CC1CC1)O2
32	C=CCN1[C@@H](C)[C@H](c2ccccc2)Oc2cccc(N3CCCC(C)C3)c2S1(=O)=O (stereo partly drawn)
6[16.7 µM]	CO[C@H]1CN(C)C(=O)c2ccc(NC(=O)c3cnccn3)cc2OC[C@@H](C)N(CCc2ccccc2)C[C@@H]1C
8	CCN(CC)C(=O)[C@H]1C[C@@H]2[C@H](C[C@@H](c3ccccc3)[C@H]1C)N(c1ccc(F)cc1)C(=O)N2C/C=C(\C)CCC=C(C)C
3[16.7 µM]	CCCNC(=O)[C@H]1[C@H](CO)[C@H]2Cn3c(ccc(C4=CCCC4)c3=O)[C@@H]1N2C(=O)CC
24[16.7 µM]	CC=Cc1ccc2n(c1=O)C[C@H]1[C@H](CO)[C@@H](C(=O)Nc3nccs3)N(Cc3cc(F)ccc3F)[C@@H]21 (mixture of isomers)

Compound activity from PubChem BioAssay.
